Yeast UUG start: alters start codon recognition fidelity in yeast | S. cerevisiae UUG-firefly luciferase reporter, luminescence/redox ratio | activity score, % at 18.7 µM | actives 0.13% (n = 350,000);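 active = replicate mean at a twofold rise or more, about +100% in these data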;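 note: firefly luciferase made from a UUG start codon reports start codon fidelity; reporter light over untreated wells divided by growth signal over untreated wells; some hits fall short of that in this replicate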
Rce1 inh: yeast Ras-converting enzyme inhibition; Q03530; yeast membranes, quenched prenylated peptide cleavage fluorescence; calls only; actives 0.27% (n = 290,000); AID 2563;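 active = fall in fluorescence gain of 50% or more versus controls, with final raw signal at or below 3038400; inconclusive = same 50% fall but final raw signal above 3038400; inactive = fall in fluorescence gain under 50%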;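 note: plate controls were neutral control wells for no effect and wells lacking membranes for full effect; tested at 10 µM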
Target sequence (Q03530 whole entry, looked up): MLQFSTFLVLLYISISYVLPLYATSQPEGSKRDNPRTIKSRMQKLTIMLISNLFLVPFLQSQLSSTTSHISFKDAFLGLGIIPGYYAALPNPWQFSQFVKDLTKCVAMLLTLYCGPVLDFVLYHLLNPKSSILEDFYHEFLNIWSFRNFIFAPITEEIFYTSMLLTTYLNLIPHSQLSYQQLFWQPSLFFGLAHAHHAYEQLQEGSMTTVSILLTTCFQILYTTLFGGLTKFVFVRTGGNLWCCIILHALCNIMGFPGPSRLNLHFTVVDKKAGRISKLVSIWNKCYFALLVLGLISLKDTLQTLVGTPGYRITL
Env fusion inh: blocks HIV Env-driven cell-cell fusion. HeLa-JRFL Env/CEM21 cell fusion, luciferase. inhibition, % at 12.3 µM. actives 1.1% (n = 360,000);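 active = mean replicate inhibition score of at least 50 and every replicate individually at or above 50; inconclusive = only one of the two criteria met; inactive = mean below 50 and not all replicates reaching 50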;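 note: 0% = plate neutral controls and 100% = maraviroc near 300 nM; one replicate is shown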
eIF4H inh: inhibitors of RNA binding by human eIF4H; eIF4H fluorescence polarization binding assay; inhibition, % at 35 µM; actives 0.94% (n = 290,000); AID 2012;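 active = 50% or more with normal probe brightness, or confirmed in later tests; inconclusive = above 50% with abnormal brightness, or retests that disagree; inactive = below 50% or failed in later tests; about a fifth of its hits are not listed in these tables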;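 note: calls also rest on retests at 20 µM and on dose response follow-up; 0% = protein and probe with vehicle and 100% = probe without protein; strong numbers were not always called active; many hits fall short of the cut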
PABP polyA inh: blocks human PABP binding to poly(A) RNA; actives 1% (n = 290,000); P11940; fluorescence polarization; inhibition, % at 35 µM;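 active = 50% or more with normal probe brightness, or confirmed in later tests; inconclusive = above 50% with abnormal brightness, or retests that disagree; inactive = below 50% or failed in later tests; about a fifth of its hits are not listed in these tables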;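 note: calls also rest on retests at 20 µM and on dose response follow-up; controls were probe without protein and protein plus probe with vehicle; some compounds called inactive have numbers as strong as hits; many hits fall short of the cut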
Target sequence (P11940 whole entry, looked up): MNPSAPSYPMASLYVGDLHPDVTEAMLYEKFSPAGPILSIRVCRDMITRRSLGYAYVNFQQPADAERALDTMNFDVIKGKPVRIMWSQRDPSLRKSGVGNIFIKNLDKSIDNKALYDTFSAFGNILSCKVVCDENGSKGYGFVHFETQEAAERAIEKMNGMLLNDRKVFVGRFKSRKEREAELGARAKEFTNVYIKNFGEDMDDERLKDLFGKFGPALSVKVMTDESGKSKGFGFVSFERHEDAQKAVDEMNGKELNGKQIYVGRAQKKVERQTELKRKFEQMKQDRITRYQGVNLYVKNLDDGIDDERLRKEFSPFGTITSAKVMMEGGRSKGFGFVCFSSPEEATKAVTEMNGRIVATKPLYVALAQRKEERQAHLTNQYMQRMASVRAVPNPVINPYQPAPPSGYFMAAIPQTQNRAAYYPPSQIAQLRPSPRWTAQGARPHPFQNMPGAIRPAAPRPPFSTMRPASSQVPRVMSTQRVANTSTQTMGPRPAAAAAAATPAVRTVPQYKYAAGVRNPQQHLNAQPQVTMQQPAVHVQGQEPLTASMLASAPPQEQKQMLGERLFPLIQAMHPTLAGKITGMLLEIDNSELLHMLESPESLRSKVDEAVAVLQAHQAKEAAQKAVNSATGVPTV
MT1-MMP act inh: blocks activation of human MT1-MMP; actives 0.061% (n = 360,000); HT1080 RFP-PRO-GFP cells, GFP/RFP ratio fluorescence, overnight; percent of plate control window, DMSO zero; GFP/RFP ratio change, % at 20 µM; P50281;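 active = GFP/RFP ratio change of at least 30% with cell ATP level not reduced by more than half and red fluorescence within 50% of control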; note: strong numbers were not always called active
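Assay system: HT1080 cells carrying an RFP-PRO-GFP reporter | Dosing: Single dose of 20 µM compound, 1% DMSO final | Incubation: Cells overnight before dosing, compound overnight, 37 °C, 5% CO2 | Evaluation: GFP/RFP fluorescence ratio | Control set: DMSO and RFP-L50D-GFP cell wells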
CSC inhib: cancer stem cell inhibition; inhibition, % at 7.5 µM; actives 1.1% (n = 300,000); cancer stem cell-like cells viability, luminescence; AID 2717;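 active = mean at 75% or more and at least half the replicates too; inconclusive = mean and replicates disagree; tested in HMLE shEcad cells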;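 note: 0% = median of negative and 100% = median of positive control wells; the first replicate is given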
MT1-MMP act inh RFP: recorded beside MT1-MMP act inh, whose call it bears; RFP signal change, %; measured here: RFP expression control read;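 0 = vehicle wells; hits needed this value within 50% of zero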
* = called active by the depositor; i = inactive; ? = inconclusive; / = no result given.

Fields: Yeast UUG start | Rce1 inh | Env fusion inh | eIF4H inh | PABP polyA inh | MT1-MMP act inh | MT1-MMP act inh RFP | CSC inhib
COc1ccc(OC)c(N(CC(=O)N2CCC(C)CC2)S(=O)(=O)c2ccccc2)c1
→ 7 | i | 25 | -12 | -8 | 2 | -2 | /
CC(=O)N1CCCc2cc(S(=O)(=O)CCC(=O)Nc3cccc(C)c3C)ccc21
→ -11 | i | 11 | 11 | -2 | 4 | 6 | -6
COc1ccc(S(=O)(=O)N2CCN(S(=O)(=O)c3ccc(C(F)(F)F)cc3)CC2)cc1C
→ -4 | i | -12 | -1 | -15 | 5 | 8 | -10
CCN(CC)C(=O)C1=C(C)N(Cc2ccc(F)cc2)C(=O)C(CC(=O)NCC2CCCCC2)C1 (configuration not stated)
→ 12 | / | -54 | / | / | 2 | 4 | /
CCOC(=O)c1cc(-c2cccs2)nc2c1c(C)nn2-c1ccccn1
→ -26 | i | -22 | 7 | 0 | -1 | -11 | 104*
CCC(=O)CN(Cc1cc(OC)ccc1OC)S(=O)(=O)c1ccccc1Br
→ -12 | / | 16 | / | / | 0 | -1 | /
O=C(NN=C1CCCC1)C1COc2ccccc2O1 (configuration not stated)
→ / | i | 1 | 2 | 24 | 8 | 7 | -2
O=C(CNC(=O)c1ccccc1)NCC(=O)OCc1ccc(Cl)cc1
→ -16 | i | -8 | -9 | -16 | 6 | 1 | -10
CC(C)CNC(=O)COC(=O)c1ccc([N+](=O)[O-])cc1Cl
→ -18 | i | -38 | 5 | -14 | -5 | -1 | -9
O=C(Nc1ccccc1)C1CCN(C(=O)c2ccco2)CC1
→ -10 | i | -3 | -10 | 1 | 0 | 3 | -5
Cc1ccc(NCc2nnc(SCC(=O)Nc3cccc(O)c3)n2CC2CCCO2)c(C)c1 (configuration not stated)
→ -21 | i | -10 | 2 | 6 | -2 | 2 | 15
O=C(c1ccc(CSc2nc3ccncc3[nH]2)cc1)N1CCCCCC1
→ -77 | i | 17 | -2 | 0 | -4 | -19 | 15
N#CCN1C(=O)C2CCCN2c2ccc(S(=O)(=O)N3CCOCC3)cc21 (configuration not stated)
→ / | i | -8 | 1 | 6 | -4 | 0 | 1
Cc1cc(S(=O)(=O)N2CCOCC2)ccc1OCC(=O)Nc1cccc(C(F)(F)F)c1
→ -13 | i | -4 | 0 | -4 | 3 | -1 | -14
CCCCNC(=O)CSc1nc2ccc(N3CCOCC3)cc2c(=O)n1CCc1ccccc1
→ -4 | i | -18 | 8 | 36 | 12 | 7 | 22
COc1ccc(NC(=S)N(CCN2CCOCC2)Cc2cc3cc4c(cc3[nH]c2=O)OCCO4)cc1
→ -8 | i | 12 | -3 | -2 | -2 | 5 | 8
COc1ccc(Sc2ccc(/C=C3\C(=O)NN(c4ccccc4)C3=O)o2)cc1
→ / | i | / | 9 | -2 | -4 | -1 | 71
COc1ccc(/C(C)=N/NC(=O)C(NC(=O)c2ccccc2)c2n[nH]c(=O)c3ccccc23)c(OC)c1 (configuration not stated)
→ -41 | i | 6 | 3 | 4 | 2 | -2 | -3
OCC1(CC2CCCCO2)CCN(Cc2cccc(O)c2)CC1 (configuration not stated)
→ / | i | 6 | 0 | -6 | -4 | 3 | -6
Cc1ccc(C(=O)N2CCOCC2)cc1S(=O)(=O)N1CCCC1
→ -2 | i | -10 | -10 | 1 | -3 | -1 | 2
C=CCN(C(=O)c1csnn1)C(C(=O)NC1CCCC1)c1ccc(OC)cc1 (configuration not stated)
→ -17 | i | -3 | 1 | 2 | -3 | 2 | -9
CCC(CC)COC(=O)C1=C(C)NC(=O)NC1c1ccc(OC)cc1 (configuration not stated)
→ -10 | i | 23 | 0 | -2 | 4 | -3 | 6
CC1CCC2(CC1)NC(=O)N(CC(=O)Nc1cccc(S(=O)(=O)N(C)c3ccccc3)c1)C2=O (configuration not stated)
→ -4 | / | 12 | / | / | 7 | -1 | /
Cc1ccc(C(=O)N/N=C/C2=Cc3ccccc3OC2C)cc1 (configuration not stated)
→ / | i | -7 | -4 | -4 | 0 | -8 | 31
COc1cc(C(=O)NNC(=O)c2nn(C)c(=O)c3ccccc23)cc(OC)c1OC
→ -7 | / | / | / | / | 6 | 6 | -17
Cc1cnc(NC(=O)c2cccs2)s1
→ -21 | i | -4 | 12 | -4 | 1 | 3 | 7
Cn1c(C(=O)N2CCCC2)cc2c(=O)n(C)c3ccccc3c21
→ -6 | / | -19 | 1 | 1 | 4 | 1 | /
Cc1ccc(Br)cc1S(=O)(=O)N1CCN(c2ccccc2)CC1
→ / | i | / | 8 | 17 | 1 | 2 | 6
O=C(NCCc1ccccc1)c1cccnc1N1CCCCCC1
→ / | i | / | -3 | -1 | 19 | 0 | -13
CCOc1ccc(NC(=S)Nc2ccccc2C2CC2)cc1
→ / | i | 9 | -8 | 0 | 2 | 2 | -22
CCOC(=O)/C=C1\SCC(=O)N1CC(=O)Nc1ccccc1OC(F)F
→ -20 | i | -61 | 31 | 36 | -9 | 8 | 19
O=[N+]([O-])c1ccc(NN=C2CC3CCC2C3)c([N+](=O)[O-])c1 (configuration not stated)
→ -9 | / | -34 | / | / | 25 | -9 | /
CCOc1cc(/C=C2/N=C(c3ccc4c(c3)OCO4)OC2=O)ccc1OC(C)=O
→ -14 | / | / | / | / | -2 | 3 | 4
c1ccc(CCNCc2cccs2)nc1
→ -21 | / | -5 | / | / | 1 | 9 | /
CC(=O)c1cccc(NC(=O)NCc2ccccn2)c1
→ -62 | i | / | -6 | 4 | 3 | 5 | -3
COc1ccc(C(=O)Nc2ccccc2C(=O)Nc2cccnc2)cc1
→ / | i | -17 | 3 | 6 | -3 | 1 | /
C(=N\Nc1ccc(-n2ccnc2)nn1)/c1ccccc1
→ -14 | i | 0 | 4 | 6 | 1 | -1 | -3
Nc1cc(=O)nc(SCC(=O)Nc2ccccc2Cl)n1-c1ccccc1
→ / | i | -25 | -6 | -13 | 2 | -7 | 3
O=C(CN1C(=O)C2CCCCC2C1=O)N1CCN(c2ccccc2)CC1 (configuration not stated)
→ -10 | i | 5 | 2 | -2 | -6 | -1 | 11
Cc1nn(CC(=O)NCCCN2CCN(Cc3ccccc3)CC2)c(=O)c2cc(-c3ccccc3)nn12
→ -14 | i | 5 | -15 | 4 | -3 | -6 | -1
O=C(Cn1nc(C(F)(F)F)c2c1CCCC2)N1CCOCC1
→ / | i | 5 | -5 | 5 | 3 | 6 | 9
COc1ccc2[nH]c3c(c2c1)CCN1C(=O)C(CC(=O)NCCCn2ccnc2)C[C@H](C(=O)N2CCOCC2)[C@@]31C (some centres not stated)
→ -5 | / | -17 | / | / | 1 | 6 | /
C=CC[C@H]1CC(C)=C[C@H](CC=C)N1
→ / | i | 7 | 2 | -13 | 1 | 5 | -9
O=C(Nc1ccccc1C(=O)N1CCOCC1)c1ccc([N+](=O)[O-])cc1
→ 3 | i | 5 | -7 | 2 | 2 | 4 | -2
Cc1ccc(-n2nc(-c3ccc(N)cc3)cc2N)cc1
→ -2 | i | / | -9 | -15 | 2 | 2 | -2
Cc1onc(-c2c(F)cccc2Cl)c1C(=O)N(Cc1ccccc1)C(C)C
→ -14 | i | 8 | 10 | -14 | -2 | -4 | /
Cc1cnc(C(=O)Nc2ccc(S(=O)(=O)N(C(C)C)C(C)C)cc2)cn1
→ -19 | i | -1 | -1 | 4 | 1 | -4 | 2
CC(C)(C)NC(=O)NC(=O)CN1C(=O)NC(C)(c2ccccc2)C1=O (configuration not stated)
→ -7 | i | -6 | -1 | 1 | 5 | 1 | 5
Cc1ccccc1NC(=O)c1ccccn1
→ / | i | -24 | -4 | -2 | -2 | -4 | -9
Fc1ccc(-c2ncc3ccccn23)cc1
→ / | i | -11 | 0 | -2 | -17 | -3 | -3
Cc1nc2sc(C(c3ccco3)N3CCC4(CC3)OCCO4)c(O)n2n1 (configuration not stated)
→ -27 | i | -10 | / | / | 2 | 6 | -10
COCCNC(=O)C1CC(c2ccccc2[N+](=O)[O-])=NO1 (configuration not stated)
→ -1 | i | 12 | -9 | 11 | 1 | 5 | -6
Cc1ccc(Oc2cc(NC(=O)CCCn3nc([N+](=O)[O-])cc3C)cc([N+](=O)[O-])c2)cc1
→ / | i | 6 | 7 | 19 | 3 | -3 | 40
COC(=O)c1ccc(/C=N/OCC(=O)NC2CCCC(C)C2C)cc1 (configuration not stated)
→ 4 | i | 39 | 1 | 3 | -4 | -3 | -2
COC(=O)Nc1ccc(S(=O)(=O)N2CCCCC2C(=O)O)cc1 (configuration not stated)
→ / | i | 7 | -9 | 0 | -1 | 3 | -16
CC1CCCC(C)N1C(=O)CSc1nccc(=O)[nH]1 (configuration not stated)
→ -9 | i | -1 | -11 | 4 | 3 | 6 | -8
CCOc1cc(CNCCO)cc(Br)c1OCc1ccc(Cl)cc1
→ -10 | i | / | -2 | -6 | -14 | -13 | 85*
CCN(CC)c1ccc2c(C)c(-c3ccc(N)cc3)c(=O)oc2c1
→ -3 | i | / | 3 | -5 | -2 | -8 | -9
O=C(Nc1ccc2c(c1)OCCO2)c1ccoc1
→ / | i | -17 | 3 | 8 | 3 | 1 | -6
C=CCn1c(=O)c2ccccc2n2c(SCC(=O)N(C)C)nnc12
→ -6 | i | -4 | -7 | 3 | -3 | 1 | /

Further records follow.
Fields: Yeast UUG start | Rce1 inh | Env fusion inh | eIF4H inh | PABP polyA inh | MT1-MMP act inh | MT1-MMP act inh RFP | CSC inhib
Cc1ccc(S(=O)(=O)Nc2cccc(C(=O)N3CCN(c4ccccc4O)CC3)c2)cc1F
→ / | i | 3 | / | / | 1 | 1 | -18
CC1(C(=O)NS(=O)(=O)c2ccc(F)cc2F)CCN1C(=O)Cc1cc(F)ccc1F (configuration not stated)
→ -17 | / | -10 | / | / | 2 | 5 | /
O=C(c1ccco1)N1CCN(c2ncnc3sc4c(c23)CCC4)CC1
→ -6 | i | 46 | 0 | -5 | -6 | -7 | -3
O=C(NCCc1ccccc1)C1CCCN(c2ncnc3c2nc2n3CCCCC2)C1 (configuration not stated)
→ -6 | i | 3 | -10 | 1 | -1 | 0 | -9
COC(=O)CC1C(=O)NCCN1C(=O)Nc1ccc(Cl)cc1 (configuration not stated)
→ / | i | / | -8 | -9 | 0 | 2 | -10
Cc1ccsc1C(=O)OCC(=O)NCCNC(=O)COC(=O)c1sccc1C
→ -9 | i | -14 | / | / | -6 | -1 | -10
Cc1ccccc1C(=O)NCCNc1ccc([N+](=O)[O-])cc1
→ / | / | -7 | 4 | 8 | 3 | -2 | 9
COC(=O)COc1cc(OCC(=O)OC)c2c(C)c(Cl)c(=O)oc2c1
→ / | i | -13 | -13 | 7 | 4 | 6 | -12
COc1ccc(CNc2ncnc3cc(Cl)ccc23)cc1OC
→ / | i | 39 | -4 | -2 | -3 | -23 | /
COc1ccc(OC)c(-c2csc(NC(=O)CN3C(=O)C4CCCCC4C3=O)n2)c1 (configuration not stated)
→ -1 | i | -1 | / | / | 3 | 3 | 17
O=C(NC1CC1)C1CCN(c2ncnc3c2sc2cccc(F)c23)CC1
→ -4 | i | 10 | -1 | -2 | -3 | -8 | -4
CC(=O)Nc1ccc(NC(=O)COC(=O)/C(=C/c2ccccc2)n2nnnc2C)cc1
→ -5 | i | / | 5 | 1 | / | / | -7
CC(=O)n1c2ccccc2c2nc(NC(C)C)sc21
→ -15 | i | ? | 3 | 15 | -14 | 7 | 11
Oc1cccc(/C=N/Nc2cccc3cccnc23)c1
→ -47 | i | -290 | -12 | -2 | -4 | -1 | /
O=C(CSCc1ccccc1Cl)Nc1ccc2c(c1)OCCO2
→ -24 | i | -285 | 2 | -2 | 3 | 5 | 2
CC1CN(C(=O)c2ccn(C)n2)CC(C)O1 (configuration not stated)
→ -21 | i | 0 | -5 | -1 | 2 | 3 | -10
